Screens: PubChem, National Center for Advancing Translational Sciences (NCATS)
Six1-Eya2 inh – qHTS Assay for Inhibitors of the Six1/Eya2 Interaction; Homeobox protein SIX1 (Homo sapiens) + Protein phosphatase EYA2 (Homo sapiens), …; AID 651725, 2012; 0.56% of 360,000 active; AlphaScreen GST-Six1/His-Eya2 binding, biochemical; hits give low values; control for the full effect not named in the record; activity change, % (no concentration beside the values); in the data active = activity change below about -65%; inconclusive = about -30% to -65%; inactive = above about -30%; further: on the % scale 0 is the no-effect control and ±100 the full control effect; compound concentration not given in the record
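AlphaScreen with GST-Six1 and His-Eya2 (5X mix: 250 nM and 500 nM), glutathione donor and nickel acceptor beads; buffer 50 mM Tris pH 8.0, 300 mM NaCl, 1 mM TCEP; 1 h at 37 C in the dark.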
D2 agonist – Beta-Arrestin HTS for Positive Allosteric Modulators of the Human D2 Dopamine Receptor: Agonists | DiscoveRx PathHunter D2 beta-arrestin, luminescence, 90 min; 100% = 57 uM dopamine signal | AID 624465, 2012 | 0.084% of 360,000 active | activation, % (test concentration not listed) | D(2) dopamine receptor (Homo sapiens), P14416; in the data active = activation above about 40%; inconclusive = about 15% to 40%; inactive = below about 15%; further: compound concentration not given in the record; the text of the record calls up to 30% inactive
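DiscoveRx PathHunter D2 beta-arrestin cells (2,100/well) attached overnight, then compound-stimulated 90 min at 37 C in HBSS/10 mM HEPES/0.1% Tween-20 buffer; beta-galactosidase complementation read by luminescence after 1 h at ambient temperature. Dopamine 57 uM final (EC100) as control.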
TRPV1 potentiator – HTS Assay for Compounds that Act as Potentiators of the Vanilloid Receptor 1. Transient receptor potential cation channel subfamily V member 1 (Homo sapiens), Q8NER1. TRPV1-expressing cells, Fluo-8 calcium influx, capsaicin EC20 potentiation; host cell line not named in the record; control for the full effect not named in the record. potentiation, % at 8.33 µM. 0.02% of 320,000 active. AID 540277, 2011; active means potentiation above 80%; inconclusive means 30% to 80%; inactive means below 30%; further: 0% is about no effect
Target sequence (Q8NER1 whole entry, looked up): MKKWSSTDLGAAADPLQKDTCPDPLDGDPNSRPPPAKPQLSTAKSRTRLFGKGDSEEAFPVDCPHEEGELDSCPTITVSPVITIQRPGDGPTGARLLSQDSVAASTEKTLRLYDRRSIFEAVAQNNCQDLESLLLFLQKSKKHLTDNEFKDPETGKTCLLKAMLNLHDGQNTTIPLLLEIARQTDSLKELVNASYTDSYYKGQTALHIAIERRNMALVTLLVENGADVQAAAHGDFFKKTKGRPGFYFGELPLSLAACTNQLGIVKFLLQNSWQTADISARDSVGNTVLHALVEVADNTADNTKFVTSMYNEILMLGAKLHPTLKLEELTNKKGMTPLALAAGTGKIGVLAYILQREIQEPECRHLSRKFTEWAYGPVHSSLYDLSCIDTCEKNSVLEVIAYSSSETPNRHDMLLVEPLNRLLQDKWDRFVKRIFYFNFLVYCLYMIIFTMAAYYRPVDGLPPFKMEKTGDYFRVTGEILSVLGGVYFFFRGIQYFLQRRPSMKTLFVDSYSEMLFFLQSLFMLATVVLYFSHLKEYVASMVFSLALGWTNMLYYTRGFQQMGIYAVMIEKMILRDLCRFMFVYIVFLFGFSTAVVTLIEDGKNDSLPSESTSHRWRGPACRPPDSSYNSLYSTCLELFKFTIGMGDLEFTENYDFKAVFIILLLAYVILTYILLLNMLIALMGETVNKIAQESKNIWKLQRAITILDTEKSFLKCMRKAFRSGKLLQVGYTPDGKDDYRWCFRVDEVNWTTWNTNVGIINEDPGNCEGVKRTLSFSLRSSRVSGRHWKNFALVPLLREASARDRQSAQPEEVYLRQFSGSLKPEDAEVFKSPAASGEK
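Cells expressing TRPV1 were dye-loaded with Fluo-8 and read kinetically: 10 s baseline, 3 min after compound (agonist portion), then 2 min after EC20 capsaicin (allosteric enhancer portion). Calcium-bound dye fluorescence at 480/520 nm.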
Sfp inh – qHTS Assay for Inhibitors of Bacillus subtilis Sfp phosphopantetheinyl transferase (PPTase). 3.5% of 310,000 active. 4'-phosphopantetheinyl transferase ffp (Bacillus subtilis), Q9F4F7. Biochemical Sfp PPTase activity, qHTS. Potency, µM, for the others: max response, negative = inhibition, actives largely listed as inhibitors; active means well fitted inhibition curve with a large enough effect; inconclusive means small, poorly fitted or top-dose-only effect, or another doubt; inactive means no such curve, though single readings can be large or run the other way;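 further: the enzyme is Sfp with the accession as filed and its product quenches rhodamine fluorescence; potency means the concentration at half of the fitted maximal effect; 0% = enzyme reaction without inhibitor and -100% = no enzyme wells; top concentration of the series not given in the record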
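Reaction rates are the 30-min fluorescence difference (ex 525, em 598 nm) in wells containing 15 nM Sfp, 5 uM rhodamine-CoA and 12.5 uM BHQ-2-YbbR at pH 7.6 with 10 mM MgCl2.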
PINK1 expr mod – A Quantitative High throughput Screen to Identify Chemical Modulators of PINK1 Expression; PINK1 immunofluorescence, high-content cytometry, 24 h; Potency, µM (titrated, usually from 76.6 µM), without a hit: at the highest dose activation (PINK1 increase), hits mostly activators; 0.2% of 410,000 active; AID 624263, 2012; active = well fitted activation curve with a large enough effect; inconclusive = small, poorly fitted or top-dose-only effect; inactive = flat fitted curve, though single readings scatter; cell line not stated here;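 further: potency means the concentration at half of the fitted maximal effect; % of control where 0% means no effect; nearly all actives have a fitted effect of over 65% in size; a mitochondrial uncoupler was the plate control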
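Fluorescence from anti-PINK1 antibody, together with nuclear and cell stains, was scanned on a laser-scanning cytometer. Before staining, stable-line cells were incubated 24 hours with compounds at 5 concentrations; primary antibody 12 h at 10 degrees C.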
CtBP-E1A blk – qHTS Assay for Inhibitors of the CtBP/E1A Interaction; AlphaScreen GST-E1A/His-CtBP binding, 1536-well; hits give low values; control for the full effect not named in the record; activity change, % (no concentration beside the values); 0.49% of 340,000 active; AID 651724, 2012; CtBP / adenovirus E1A interaction (AlphaScreen); in the data active means activity change below about -65%; inconclusive means about -30% to -65%; inactive means above about -30%; further: on the % scale 0 is the no-effect control and ±100 the full control effect; compound concentration not given in the record
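Protein mix (5X: 125 nM each GST-E1A, His-CtBP) was incubated with pinned compound 2 h at 37 deg C in dark, in 50 mM Tris pH 8.0 buffer with 300 mM NaCl. Glutathione donor and nickel acceptor beads followed; AlphaScreen signal read after 1 h.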
D2 potentiator – Beta-Arrestin HTS for Positive Allosteric Modulators of the Human D2 Dopamine Receptor: Potentiators | D(2) dopamine receptor (Homo sapiens), P14416 | DiscoveRx D2 beta-arrestin cells, luminescence, 90 min; 100% = 57 uM dopamine signal | potentiation, % (test concentration not listed) | 0.23% of 360,000 active | AID 624464, 2012; active = potentiation of 50% or more; inconclusive = 30% to 50%; inactive = 30% or less;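 further: compound concentration not given in the record; tested on top of an EC20 dose of dopamine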
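D2 cells co-treated with compound plus 50 nM dopamine (EC20) for 90 min at 37 deg C to detect potentiation. Beta-arrestin recruitment was read as enzyme-fragment luminescence after 1 h at ambient temperature. Full response was set by 57 uM dopamine.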
An asterisk follows results filed as active; ? = inconclusive; . = not tested or not shown; & = joins results of further samples; [ ] = dose if it differs, or a comment.

SMILES	Six1-Eya2 inh	D2 agonist	TRPV1 potentiator	Sfp inh	PINK1 expr mod	CtBP-E1A blk	D2 potentiator
Cc1cccc(OCC(=O)NCC(C)(C)N2CCOCC2)c1	15.7	-3.8	2.2	.	-0.1%	22.2	-3.3
CC(C)(C)NC(=O)C(c1ccsc1)N(CCc1ccccc1)C(=O)Cn1nnc2ccccc21 (stereo not given)	0.2	-3.1	-5.3	27.9%	.	-6.1	1.6
Cc1ccc(C2=NOC(C)(c3nnc(-c4ccncc4)o3)C2)cc1 (stereo not given)	3.7	-0.5	.	.	-0.4%	-1.4	-27.7
c1ccc(-c2cn3nc(-c4ccccc4)cnc3n2)cc1	10.0	-0.4	?	1.3%	12.9%	8.3	16.5
Cc1nnc(SCC(=O)Nc2ccc(N3CCOCC3)cc2)o1	-1.2	-3.4	21.4	4.5%	1.6%	-2.5	-21.2
O=C(c1ccccc1[N+](=O)[O-])n1cnc2ccccc21	0.9	4.7	0.9	10.1%	3.2%	2.1	17.1
COCCN(Cc1nc(C2(c3ccc(C)cc3)CCCC2)no1)C(C)C	20.1	-0.6	-5.2	16.0%	6.0%	22.2	-34.9
Fc1ccc(-c2nc3c4ccccc4ccn3c2Cc2ccccc2)cc1	-1.7	-2.5	.	.	0.5%	3.4	.
CC1(C)CC(=O)c2cc(C(=O)NNc3ccccc3)c(=O)n(-c3ccccc3)c2C1	4.5	10.8	12.4	16.9%	-0.1%	.	-5.1
O=C1CC(c2cccc([N+](=O)[O-])c2)c2cc3c(cc2N1)CCC3 (stereo not given)	-1.0	5.1	-11.3	-5.5%	4.0%	-0.6	-7.9
O=C(CN1CCCCC1)NCC1(c2ccccc2)CCCC1	-0.5	-3.0	8.0	4.7%	2.0%	9.1	-7.0
Cc1ccc(Oc2cc(N3CCOCC3)nc(-c3ccccc3)n2)cc1	6.3	-0.9	-13.4	2.4%	-0.4%	3.1	-16.5
COc1cccc(NC(=O)Cc2ccc3ccccc3c2)c1	5.3	-3.9	-4.5	3.9%	-0.4%	-3.3	-3.4
CCOc1ccc(Cl)cc1S(=O)(=O)n1nnc2ccccc21	4.5	-1.1	-1.1	7.3%	-0.3%	0.7	-0.9
COC(=O)c1ccc(COc2ccccc2/C=N/NC(N)=O)o1	-7.5	1.3	-0.6	-0.8%	-0.4%	-3.2	-2.3
NC(=O)CC(NC(=O)Cc1ccc(Br)cc1)c1ccc(NCCOc2ccccc2)c([N+](=O)[O-])c1 (stereo not given)	-0.8	-5.3	13.4	-11.3%	-0.3%	1.5	-4.4
Cc1cc(SCCC(=O)O)nc2ccccc12	14.1	-0.7	8.9	-7.7%	-1.4%	-1.0	-4.7
COc1ccc(CNC(=O)c2cccnc2Sc2ccc(Cl)cc2)cc1	19.2	0.2	-13.2	2.3%	24.3%[38.3 µM]	41.2	-6.7
O=C(COc1ccc(Br)cc1)NNC(=O)Cc1ccc(S(=O)(=O)N2CCOCC2)s1	-0.1	-2.3	.	.	1.6%	-7.5	-6.0
O=C(Nc1ccc(CN2CCOCC2)cc1)c1cc2ccccn2n1	-0.1	-7.1	-24.2	-8.7%	1.5%	-6.3	-7.8
C/C(=N\NC(=O)c1ccc(-n2cnnn2)cc1)c1ccc(C)cc1	-1.4	0.2	-19.7	.	-0.2%	-5.8	-1.0
COCC(=O)N/N=C\c1cccc(OC)c1OC/C=C/c1ccccc1	-2.2	-4.0	14.1	-2.3%	-0.6%	-2.8	-10.8
CCCN1Cc2cc(OC)ccc2-c2ccccc2S1(=O)=O	-1.4	-3.6	.	.	-0.7%	-24.6	-9.9
COc1cc(/C=C(\C#N)C(=O)Nc2ccccc2F)ccc1OCCN1CCOCC1	3.9	-5.3	20.0	10.9%	-0.3%	-3.7	-14.9
COC(=O)CNC(=O)CN1c2cccc3cccc(c23)S1(=O)=O	10.5	3.1	1.1	3.6%	-0.8%	15.9	-11.3

Following part
SMILES	Six1-Eya2 inh	D2 agonist	TRPV1 potentiator	Sfp inh	PINK1 expr mod	CtBP-E1A blk	D2 potentiator
O=C(C[n+]1cccc(Br)c1)c1ccccc1	0.8	5.4	1.4	5.2%	-0.5%&0.4%	-2.8	-7.5
Cc1ccsc1C(=O)C1CCCN(Cc2cc(F)ccc2-n2cccn2)C1 (stereo not given)	-0.8	-5.7	1.5	12.7%	8.0%	-1.5	-42.9
CCn1ccnc1CN1CCC(n2nccc2NC(=O)c2ccccc2OC)CC1	-2.0	-4.8	-15.7	2.6%	-1.2%	-1.9	-14.1
CN1CCCN(C(=O)CC(c2ccccc2)c2ccccc2)CC1	-4.1	-5.0	-7.1	6.3%	0.6%	.	-18.1
O=C(CN1C(=O)/C(=C\c2cccs2)SC1=S)Nc1cccc(C(=O)O)c1	-18.9	1.7	-10.0	-13.3%	1.5%	?	-1.9
COc1ccc(-c2cc(C(F)(F)F)n3nc(C(=O)N(C)Cc4ccccc4)cc3n2)cc1OC	5.2	-1.7	12.9	-16.9%	0.7%	16.5	-4.3
COc1cc(C=c2c3ccccc3n3c2cc(-c2ccccc2)[n+]3C)cc(OC)c1OC	?	0.7	.	.	?	3.6	-4.4
COc1cccc(C(=O)C2CCCN(Cc3cccc(-n4nc(C)cc4C)c3)C2)c1 (stereo not given)	-1.4	-0.2	22.9	11.3%	0.8%	.	-11.3
Cc1ccc(-c2noc(CSc3nnc(CCc4ccccc4)n3-c3ccccc3)n2)cc1	-6.0	-0.2	7.6	?	-8.6%[38.3 µM]	-4.4	-0.3
CCN1CCN(S(=O)(=O)c2ccc(OC)c(NC(=O)c3ccccc3)c2)CC1	-22.9	-1.6	-4.0	15.5%	-1.7%	7.9	-20.0
N/C(=N\OC(=O)c1ccc2ccccc2c1)c1cccc([N+](=O)[O-])c1	-0.6	?	10.5	9.8%	7.7%	-6.9	107.6*
O=C(NC1CCCCC1)c1cc(-c2ccc(Cl)cc2)on1	10.2	-6.6	7.7	14.6%	1.3%	4.6	0.3
CC(C)[C@H](NC(=O)Nc1ccc(S(N)(=O)=O)cc1)C(=O)O	0.6	-3.8	7.8	8.9%	4.0%[38.3 µM]	6.7	-9.3
CN1C(=O)C(CC#N)(C2(CC#N)C(=O)N(C)c3ccccc32)c2ccccc21 (stereo not given)	3.8	-2.6	.	.	-0.5%	-0.8	.
CCOc1ccc(/C=C/C(=O)N(CC)CC(=O)Nc2c(F)cccc2F)cc1OC	2.7	-2.1	.	.	0.6%	7.5	-13.6
O=C(Nn1c(=O)[nH]c2ccccc2c1=O)c1ccco1	1.5	-2.0	-2.3	25.1%	-0.5%	7.0	0.7
O=C(NC1CCCCCC1)C1c2ccccc2C(=O)N1C1CC1 (stereo not given)	2.8	-2.0	2.6	13.0%	2.3%[38.3 µM]	2.7	-12.4
O=C(O)c1ccc(N2CCCCC2)cc1	0.6	-2.9	-1.0	-0.8%	-0.5%[38.3 µM]	2.3	-4.9
Cc1c(C(=O)NCC2COc3ccccc3O2)oc2ccc(S(=O)(=O)N3CC(C)CC(C)C3)cc12 (stereo not given)	-0.8	-2.6	8.7	-17.2%	.	6.8	-7.5
O=C(CCNS(=O)(=O)c1ccc(Cl)cc1)N1CCN(c2ncccn2)CC1	2.4	-5.0	2.7	.	0.3%	-1.6	-13.4
CCOC(=O)N1CCN(C(=O)C2CCN(c3nnc(-n4cccc4)s3)CC2)CC1	-8.2	-3.1	-0.4	11.3%	-2.6%	-0.1	0.8
N#CCC(=O)c1sccc1-n1cccc1	-13.1	9.2	16.1	10.6%	-0.6%	0.0	26.5
O=C(CSc1nnc(Nc2ccccc2)s1)Nc1cccc(S(=O)(=O)N2CCCCC2)c1	-14.8	0.3	14.5	-9.7%	1.6%	-0.9	0.2
C#CCOCCOCCOCCNc1nc(N2CCOCC2)nc(N2CCN(C(=O)[C@H](Cc3cc4ccccc4[nH]3)n3cc([C@@H](N)CC(C)C)nn3)CC2)n1	-0.4	-1.6	9.6	-22.2%	-0.8%	-0.5	-21.0
CCn1c(Cc2ccc(OC)cc2)nnc1SCC(=O)N1CCN(c2ccccc2)CC1	-0.4	-2.0	5.5	10.0%	-2.4%	-0.7	1.0

Rewritten bar-delimited: three of the compounds above
SMILES | Six1-Eya2 inh | D2 agonist | TRPV1 potentiator | Sfp inh | PINK1 expr mod | CtBP-E1A blk | D2 potentiator
CCn1c(Cc2ccc(OC)cc2)nnc1SCC(=O)N1CCN(c2ccccc2)CC1 | -0.4 | -2.0 | 5.5 | 10.0% | -2.4% | -0.7 | 1.0
c1ccc(-c2cn3nc(-c4ccccc4)cnc3n2)cc1 | 10.0 | -0.4 | ? | 1.3% | 12.9% | 8.3 | 16.5
COCC(=O)N/N=C\c1cccc(OC)c1OC/C=C/c1ccccc1 | -2.2 | -4.0 | 14.1 | -2.3% | -0.6% | -2.8 | -10.8

More compounds follow.
SMILES	Six1-Eya2 inh	D2 agonist	TRPV1 potentiator	Sfp inh	PINK1 expr mod	CtBP-E1A blk	D2 potentiator
COc1ccc(C(=O)c2ccccc2O)c(O)c1	-2.0	-3.1	-2.1	-4.1%&17.2%	1.7%	-4.7	-1.6
CSc1ccc(N=Nc2c(C)[nH]n(C)c2=O)cc1	0.0	-2.7	-3.7	-4.0%	0.7%	0.0	-4.3
CN=C(c1ccccc1)c1c(C)cccc1C	3.8	-2.4	12.7	-27.1%	15.0%	7.0	1.9
CCOc1c2ccoc2nc2c(OC)c(OC)ccc12	2.3	-4.9	-1.1	-14.9%	2.6%	0.0	-4.6
CC(OC(=O)c1ccncc1)C(=O)Nc1cccc(Cl)c1 (stereo not given)	-2.4	-2.4	6.9	19.2%	0.4%	-2.6	-21.1
COc1cc(OC)cc(N2CCN(S(=O)(=O)c3ccc(-n4cnnn4)cc3)CC2)c1	0.2	-4.8	-12.3	-2.7%	5.0%&0.6%	-0.8	-0.9

Outcome played no part in choosing rows, and some 3.7% of all compounds hit somewhere here.
